VDR inh – blocks the human vitamin D receptor; VDR-SRC2-3 peptide fluorescence polarization, 2 h; AID 504847; Potency, µM, inactives show max response, negative = inhibition, usual class: inhibitors; hit rate 0.93% among 400,000; active = well fitted inhibition curve with a large enough effect; inconclusive = small, poorly fitted or top-dose-only effect, or another doubt; inactive = no such curve, though single readings can be large or run the other way; also: series mostly up to about 120 µM
Target sequence (P11473 whole entry, looked up): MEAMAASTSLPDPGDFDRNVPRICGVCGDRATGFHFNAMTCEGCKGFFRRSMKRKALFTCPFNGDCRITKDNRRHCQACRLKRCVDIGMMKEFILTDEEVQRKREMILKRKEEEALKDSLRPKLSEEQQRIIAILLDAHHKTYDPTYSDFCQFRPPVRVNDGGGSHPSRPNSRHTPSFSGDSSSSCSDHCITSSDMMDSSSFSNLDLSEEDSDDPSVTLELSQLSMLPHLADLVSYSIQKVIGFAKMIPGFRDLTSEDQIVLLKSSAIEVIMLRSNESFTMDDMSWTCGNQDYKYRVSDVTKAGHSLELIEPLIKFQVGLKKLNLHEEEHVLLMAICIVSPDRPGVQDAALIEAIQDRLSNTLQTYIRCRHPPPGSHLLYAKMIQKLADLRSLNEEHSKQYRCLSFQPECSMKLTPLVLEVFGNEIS
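FP read-out; VDR + SRC2-3 coactivator peptide; 23 nl compound by pintool; 2 h RT incubation; reagents held at 4 deg C, protected from light.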
* = called active by the depositor; u = inconclusive; & = joins results of further samples. % is scaled to controls: 0 for no effect and ±100 for the full control effect; potency is read from the fitted curve at half-maximal effect. An excerpt; the hit share may differ from the screen's.

VDR inh | SMILES
-13% | COC(=O)C(=C/C(C)=C/c1cccs1)C(=O)OC
3% | CCOCCn1ccc2c(OCC(=O)NCc3ccccc3)cccc2c1=O
-9% | CCCCN(C(=O)CC1CCCC1)c1c(N)n(CCCC)c(=O)[nH]c1=O
u | CCOc1cc(C(=S)N2CCCC2)ccc1O
-17% | COc1ccc(-c2cc(C(=O)N/N=C/c3ccc(OC)c(COCC(F)(F)C(F)F)c3)c3ccccc3n2)c(OC)c1
u | C=CCn1c(SCc2nc3cc(C(=O)OC)ccc3c(=O)[nH]2)nc2sc(CC)cc2c1=O
11% | O=C(Nc1nnc(COc2ccccc2)s1)Nc1ccccc1F
9% | CC(C)CCNC(=O)c1ccc2nc(Cc3ccccc3)oc2c1
3% | CN(C(=O)c1ccc2c(c1)OCO2)C1(C)CCS(=O)(=O)C1 (stereo unspecified)
u | COc1cc(SC#N)ccc1N=Cc1c(C)[nH]n(-c2ccc(C)cc2)c1=O
12% | CCOC(=O)CCC(=O)NCc1ccc2c(c1)cc(C)n2C
-16% | O=C(CCN1CCN(c2ccccc2)CC1)Nc1ccc(OCc2ccccc2)cc1
1% | Cc1ccc(-n2nc(C(=O)O)nc2-c2ccccc2)cc1
6% | COc1cc2cnc(-c3ccccc3)c(-c3ccc(C(F)(F)F)cc3)c2cc1OC
5% | CCC(=O)c1ccc(OCC(O)CN(C)C2CCCCC2)cc1 (stereo unspecified)
u | O=S(=O)(Nc1c(Br)cc(Br)c2cccnc12)C1CC1
20% | O=C1OCC/C1=C\c1ccccc1O
u | Clc1ccc(C2=NNC(=NCc3ccc4c(c3)OCO4)SC2)cc1
7% | Cc1cc(Br)ccc1NC(=O)CNC(=O)COc1ccccc1C
-4% | COc1ccc(-c2nc3cnc(OC)nc3n(C3CC3)c2=O)cc1
-2% | CCOc1ccccc1NS(=O)(=O)c1ccc2c(c1)CC(C)N2C(=O)C1CCC1 (stereo unspecified)
16% | CC1CC1C(=O)OCC(=O)NC(=O)c1ccccc1 (stereo unspecified)
4% | COc1c(C=O)cc2c3c1CCCN3CCC2
11% | COc1ccccc1NC(=O)C(=O)NCCC1CCCCN1S(=O)(=O)c1cccs1 (stereo unspecified)

Rewritten as a markdown table: entries from further up
| SMILES | VDR inh |
| --- | --- |
| CN(C(=O)c1ccc2c(c1)OCO2)C1(C)CCS(=O)(=O)C1 (stereo unspecified) | 3% |
| COc1cc(SC#N)ccc1N=Cc1c(C)[nH]n(-c2ccc(C)cc2)c1=O | u |
| CCOC(=O)CCC(=O)NCc1ccc2c(c1)cc(C)n2C | 12% |
| O=C(CCN1CCN(c2ccccc2)CC1)Nc1ccc(OCc2ccccc2)cc1 | -16% |

Remaining list, next part
VDR inh | SMILES
3% | COc1ccc(C2CC(c3ccc4ccccc4c3)=NN2C(=O)COC(=O)C2CCC(=O)N2)cc1 (stereo unspecified)
-25% | Cc1cccc(C(=O)OCC(=O)c2cccc(Br)c2)c1O
-10% | CC1(c2ccccc2)CC(C)(C)N2C(=O)C3(C(C#N)=C(N)Oc4cc(O)ccc43)c3cccc1c32 (stereo unspecified)
15% | Clc1ccc(Sc2ccc(/C=N/n3cnnc3)o2)cc1
-5% | Cc1cc(C)nc(N2C(=O)CC(C(C)c3ccccc3)C2=O)n1 (stereo unspecified)
-1% | Cc1ccc(F)cc1N=Cc1c(O)c2ccccc2oc1=O
4% | COc1ccc(N(C(=O)CNS(=O)(=O)c2ccccc2)C(C(=O)NCc2ccco2)C(C)C)cc1 (stereo unspecified)
-1% | On1c(-c2ccccc2)nc2ccccc21
3% | O=C(Cc1ccc(NC(=O)C2CCCN(C(=O)C3CCC3)C2)cc1)Nc1ccc(C(=O)N2CCOCC2)cc1 (stereo unspecified)
-1% | Cc1ccccc1-c1nnn(Cc2ccc(F)cc2Cl)n1
-8% | CCCc1nnc(NC(=S)Nc2ccccc2)s1
-26% | CN1C[C@@H]2C(c3ccccc3)C3(c4cccnc4)CC2(C3)[C@H]1c1ccccc1 (stereo partly specified)
-14% | CCN1C(=O)/C(=C2\SC(N3CCCCC3)=NC2=O)c2ccccc21
-2% | Cc1cc(C)c(C#N)c(SCc2ccc([N+](=O)[O-])cc2)n1
16% | Cc1ccc2c(c1)nnn2C1CCN(CC(=O)Nc2ccc3c(c2)OCCO3)CC1
-3% | COc1cc(SC)ccc1C(=O)NCC1CCCO1 (stereo unspecified)
8% | Cc1ccc(N=Cc2c(O)[nH]c3ccccc23)c([N+](=O)[O-])c1
4% | OCC[C@H]1C[C@H](O)[C@@H](O)[C@@]2(OCCCc3ccccc32)O1
-10% | COc1ccc(OC[C@@H](O)CNC(=O)c2cccc3c2C(=O)c2ccc(Cl)cc2S3(=O)=O)cc1
25% | Cc1cccc(C)c1NC(=O)c1ccc(-n2cnnn2)cc1
-19% | O=C(/C=C/Nc1ccc(Br)cc1F)c1ccco1
-5% | CC/C=C/C(=O)N1CC2(CC(c3cccc(NC(=O)CC(c4ccccc4)c4ccccc4)c3)=NO2)C[C@@H]1C(N)=O (stereo partly specified)
u | O=[N+]([O-])c1cc(Cc2ccccc2)cc(C=Nc2ccc(N3CCOCC3)cc2)c1O
4% | CCN(C(=O)COC(=O)c1ncc(Cl)c(Cl)c1Cl)c1c(N)n(Cc2ccccc2)c(=O)[nH]c1=O

Three compounds already listed, arranged by their value in VDR inh, lowest first.
| molecule | VDR inh |
| --- | --- |
| O=C(/C=C/Nc1ccc(Br)cc1F)c1ccco1 | -19% |
| COc1ccc(OC[C@@H](O)CNC(=O)c2cccc3c2C(=O)c2ccc(Cl)cc2S3(=O)=O)cc1 | -10% |
| CCN(C(=O)COC(=O)c1ncc(Cl)c(Cl)c1Cl)c1c(N)n(Cc2ccccc2)c(=O)[nH]c1=O | 4% |

Continuation.
VDR inh | SMILES
-4% | Cn1nc(-c2ccccc2)c(COC(=O)c2cccc(Cl)c2)c1S(=O)(=O)c1ccccc1
-9% | CCc1c(C)c(C#N)c2nc3ccccc3n2c1NCCOC
-1% | O=C(CCCCCN1C(=O)[C@@H]2Cc3ccccc3CN2C1=O)Nc1ccccc1Cl
-1% | Cn1cnnc1SCc1ccc(-c2ccc(Br)cc2)o1
0% | COc1ccc(C(CC(=O)O)c2ccc3c(c2)OCO3)cc1 (stereo unspecified)
-9% | C=CCn1c(CSc2nc3ccccc3s2)nnc1SCC(=O)NCc1cccnc1
-1% | CCS(=O)(=O)N1CCC(c2nc(-c3ccc(C(F)(F)F)cc3)no2)CC1
-9% | CCOC(=O)C1=CC[C@H]2c3c(c4ccccc4n3C)C[C@H]1N2C
24% | CC(C)N(Cc1cn[nH]c1-c1ccc(-c2ccccc2)cc1)Cc1nccn1C
-7% | Clc1cccc(Cn2ncc3ccccc32)c1
-8% | CC1CCCCN1C(=O)C1CC(c2ccc(F)cc2)=NO1 (stereo unspecified)
-12% | CCOC(=O)c1c(/N=C/C2C(=O)CC(C)(C)CC2=O)sc(C)c1C
u | O=C(c1c(F)c(F)c(F)c(F)c1F)N1CCc2ccccc21
-11% | O=C(N/N=C\c1cc(Br)c(Br)o1)c1cncc(Br)c1
-2% | Cc1ccccc1C(=O)NC1CCN(Cc2nnnn2CCc2ccccc2)CC1
-5% | CCOc1ccc(-c2[nH]nc3c2C(c2ccc(O)cc2)C(C#N)=C(N)O3)cc1 (stereo unspecified)
0% | COC(=O)c1cn(-c2ccccc2)nc1-c1ccccc1
-11% | CC1(C)CC(NC(=O)c2ccc3c(c2)OCO3)CC(C)(C)N1
-9% | O=C(c1ccc2ccccc2c1)N1CCN(Cc2ccccc2)CC1
0% | COc1ccc(C/C(N)=N/n2cnnc2)cc1
-2% | Cc1cccc(OCC(=O)N2CCN(C(=O)c3ccc([N+](=O)[O-])cc3)CC2)c1
-10% | CCn1ncc(Br)c1C(=O)NC1CCCCCCC1
-9% | O=C(NCc1cccnc1)c1ccc(Cl)c(S(=O)(=O)Nc2ccccc2C(=O)NCc2cccnc2)c1
-16% | O=C(COc1ccc2c(C(F)(F)F)cc(=O)oc2c1)Nc1ccc(N2CCOCC2)cc1
-2%&-19% | COc1ccccc1Oc1coc2cc(O)ccc2c1=O
-19% | CCOC(=O)CSc1nnc2n(-c3ccccc3)c(=O)c3c4c(sc3n12)COC(C(C)C)C4 (stereo unspecified)
4% | COc1ccc(C2=NN(C(C#N)c3ccc(OC)c(OC)c3)C(c3ccccc3)C2)cc1 (stereo unspecified)
10% | O=c1c(Cc2c(F)cccc2Cl)c(O)ccn1Cc1ccc2c(c1)OCO2
19% | Cc1ccc(CNC(=O)c2nc(SCc3ccccc3C)ncc2Cl)cc1
0% | CCCc1cc(=O)[nH]c(SCC(=O)c2cc(C)n(-c3c(C)n(C)n(-c4ccccc4)c3=O)c2C)n1
-16% | COCCNC(=S)N(CCc1c(C)[nH]c2ccccc12)Cc1ccco1
2% | COCCN(C(=O)COC(=O)/C=C/c1ccc(C(F)(F)F)cc1)c1c(N)n(Cc2ccccc2)c(=O)[nH]c1=O
2% | CN(CC(=O)Nc1ccncc1)S(=O)(=O)c1ccccc1
-1%&-6% | Nc1cc(N2CCCCC2)nc(N)[n+]1OS(=O)(=O)[O-]
10% | Cc1ccc(S(=O)(=O)Cc2nc(-c3ccc(C(=O)NCc4ccccc4C)cc3)oc2C)cc1
1% | CCn1c(COc2cccc3ccccc23)nnc1SCC(=O)OC1CCCCC1
-13% | C=CCN1CCN(C(c2cccc(OC)c2OC)c2nnnn2CCC(C)C)CC1 (stereo unspecified)
7%&-19% | O=C1OCCN1C(=O)[C@H]1[C@H](c2ccccc2)C(c2ccc(F)cc2)=NN1c1ccc(Br)cc1
-1% | CCOC(=O)c1ccc(CN(Cc2ccc(C)cc2)S(=O)(=O)c2cccc([N+](=O)[O-])c2)cc1
-2% | NS(=O)(=O)c1ccc(NC(=O)COc2ccc(S(=O)(=O)N3CCCC3)cc2)cc1

The final five records of the part above are carried over, then new ones follow:
VDR inh | SMILES
1% | CCn1c(COc2cccc3ccccc23)nnc1SCC(=O)OC1CCCCC1
-13% | C=CCN1CCN(C(c2cccc(OC)c2OC)c2nnnn2CCC(C)C)CC1 (stereo unspecified)
7%&-19% | O=C1OCCN1C(=O)[C@H]1[C@H](c2ccccc2)C(c2ccc(F)cc2)=NN1c1ccc(Br)cc1
-1% | CCOC(=O)c1ccc(CN(Cc2ccc(C)cc2)S(=O)(=O)c2cccc([N+](=O)[O-])c2)cc1
-2% | NS(=O)(=O)c1ccc(NC(=O)COc2ccc(S(=O)(=O)N3CCCC3)cc2)cc1
-3% | COCCn1c(SCC(=O)N2CCCc3ccccc32)nnc1-c1ccoc1C
19% | Cc1cc(NC(=O)c2ccc([N+](=O)[O-])o2)ccc1NC(=O)c1ccco1
22% | O=C(c1ccccc1)c1ccc(-c2ccc(O)cc2)cc1
0% | CN(Cc1ccc(Br)s1)C(=O)CNC(=O)c1ccc2c(c1)OCO2
-7% | CC1CCN(C(=O)COC(=O)CNC(=O)C23CC4CC(CC(C4)C2)C3)CC1
-19% | O=C(CCc1nc2ccccc2c(=O)[nH]1)N1CCN(S(=O)(=O)c2ccccc2Br)CC1
-4% | Cc1ccc(-n2c(=O)[nH]c3cc(C(=O)NCc4ccccc4)ccc3c2=O)cc1
17% | CCc1nc2oc3cc(OC)ccc3c(=O)c2c(=O)n1Cc1ccco1
-4% | CCCC(=O)N1c2nc(-c3ccco3)nn2C2(CCCCC2)[C@@H]2CCCC[C@@H]21
2% | CC(O)CC(=O)NOCc1ccccc1 (stereo unspecified)
2% | COc1cccc(C(=O)Nc2ccccc2-c2nnc(-c3cc(OC)ccc3Br)o2)c1
u | CCn1cc(/C=C(\NC(=O)c2ccc(OC)c(OC)c2)C(=O)N2CCN(C)CC2)c2ccccc21
1% | O=C(Nc1nccs1)c1ccc(N2CCOCC2)c([N+](=O)[O-])c1
-16% | COc1cc(OC)cc(C(=O)N[C@H](C(=O)NCc2ccco2)C(C)C)c1
4% | CCOc1ccc(OCC(=O)N(C)c2c(N)n(Cc3ccccc3)c(=O)[nH]c2=O)cc1
9% | O=S(=O)(c1cccc2nsnc12)N1CCOCC1
3% | CC(=O)Nc1ccc(NC(=O)c2ccccc2CCc2ccccc2)cc1
-5% | C=CCN1C(=O)N/C(=C/c2ccccc2OCC(=O)Nc2ccc(F)cc2)C1=O
10% | CCC(=O)Nc1c2c(nn1-c1ccc(C)cc1C)CSC2
-6% | O=c1ccc(-c2ccc(S(=O)(=O)Nc3ccccc3)o2)n[nH]1
7% | COc1cccc(NC(=O)c2oc3ccccc3c2NC(=O)C2CC2)c1
3% | CSc1ccccc1NC(=O)c1ccc(Br)o1
1% | CCN(Cc1ccccc1)Cc1c(F)cccc1F
-8% | O=c1c2c3c(sc2n2cnnc2n1CCc1ccccc1)CCCC3
5% | NS(=O)(=O)c1ccc(NC(=O)COC(=O)Cc2c[nH]c3ccccc23)cc1
15% | COCC(C)NC(=O)NC1(C(F)(F)F)Oc2ccc(Cl)cc2O1 (stereo unspecified)
-19% | Cc1ccccc1C(=O)N/N=C/c1ccc([N+](=O)[O-])s1
0% | Cc1cc2ncn(C(=O)c3cc(-c4ccccc4)nc4ccccc34)c2cc1C
16µM* | O=c1cc(CO)oc(C(Nc2ccccn2)c2cccc(F)c2)c1O (stereo unspecified)
-1% | O=C(NC1(c2ccccc2)CC1)C1CCC(=O)N(Cc2ccc(Cl)cc2)C1 (stereo unspecified)
-21% | CC(=O)N1CCc2cc(S(=O)(=O)NCCC(=O)N3CCc4ccccc4C3)ccc21
19% | Cc1nnc(N2CCN(c3ccccc3)CC2)c2c1nnn2Cc1ccc(F)cc1
-14% | Cc1ccc(S(=O)(=O)N2CCC(C(=O)OCC(=O)N(CC(C)C)C3CCS(=O)(=O)C3)CC2)cc1C (stereo unspecified)
u | CCOc1cccc(C(=O)Nc2nccs2)c1
8% | CN(C)CC(C)(C)CNc1ccc(S(=O)(=O)N2CCCC2)cn1
-14% | Cc1cccc(-n2c(Cc3cc(=O)[nH]c(=O)[nH]3)nnc2SCC(=O)N2CCc3ccccc32)c1
1% | O=C(CCS(=O)(=O)Cc1ccccc1)Nc1nncs1

Screening results as filed in PubChem BioAssay.
